# Ba CapD inh: Bacillus anthracis CapD inhibitors, primary screen, biochemical, fluorescence intensity; CapD gamma-glutamyltranspeptidase (Bacillus anthracis Ames Ancestor); purified CapD enzyme, fluorescence intensity read-out; active compounds read low; some hits fall short of the stated cut; z-score (concentration not given with the values); hit rate 0.23% among 140,000;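 active means z-score under -4 in either of two replicates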;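 further: stock transfer was 100 nL into about 40 µL; score is relative to mean and spread of the plate; one replicate is shown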
# AID504770: growth inhibition of E. coli YBA685, primary screen, V. cholerae RctB inhibitors; E. coli YBA685 rctB-dependent plasmid, OD600 growth, 3 h; active compounds read low; z-score (no concentration beside the values); hit rate 0.27% among 130,000;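 active means z-score under -2 on both plates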;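 further: wells of about 30 µL received 100 nL stock; score is relative to mean and SD of the test wells; the first replicate is given; strong numbers were not always called active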
# Numbers without * were called inactive; nt = not tested or not shown.
molecule	Ba CapD inh	AID504770
O=c1oc2ccccc2cc1-c1nc(-c2ccccc2)no1	-1.1	1.4
CCN(CC)S(=O)(=O)c1ccc(Cl)c(C(=O)Oc2ccc(C)cc2-n2nc3ccccc3n2)c1	-0.24	0.65
CCC1Oc2ccccc2N(CC(=O)N2CC(C)CC(C)C2)C1=O (stereo unspecified)	-0.13	0.05
O=C(OCc1ccc(Cl)cc1Cl)c1cccs1	-0.85	nt
Cn1c2ccccc2c2cnn(CC(=O)N3CCc4ccccc4C3)c(=O)c21	1	0.6
COc1ccccc1Nc1nn2c(=O)c3ccccc3nc2s1	3.1	1.1
CCOC(=O)N1CCC(NC2CCCCCC2)CC1	-0.28	-0.05
CCCCOC(=O)CSc1nnc(-c2ccccc2)c(=O)[nH]1	-0.06	nt
CC(C)N1CSC(=S)N(C(C)C)C1	0.11	-4*
CCC1(C)CC(=O)NC(=O)C1	0.8	nt
COC(=O)C1=C(O)/C(=C\c2cccc3ccccc23)N=C1C	-0.18	-0.1
Cc1ccc(C2C3=C(CC(C)(C)CC3=O)Nc3ccccc3N2C(=O)Cc2ccc(Cl)cc2)o1 (stereo unspecified)	0.58	nt
CCCC(=O)N(c1ccc2oc(C)c(C(=O)OCC)c2c1)S(=O)(=O)c1ccc2ccccc2c1	0.01	nt
O=C(CC1Cc2ccccc2C1)NCC(O)c1cccc(O)c1 (stereo unspecified)	1.3	nt
O=C(NN1C(=O)c2ccccc2NC12CCCC2)c1ccccc1	27	0
N#CCS(=O)(=O)c1ccsc1	-0.45	nt
O=C(CNC1CC2CC=CC21)Nc1ccc(F)c(F)c1 (stereo unspecified)	nt	-0.4
COc1ccc(-c2nc(-c3ccccc3)nc(Sc3ccccc3)c2C#N)cc1	-0.75	nt
O=S(=O)(c1ccc(Nc2ccc(-c3ccccc3)nn2)cc1)N1CCCC1	nt	0.4
FC(F)(F)c1cnc(NCCCNC(=S)Nc2cccnc2)c(Cl)c1	0.11	nt
Nc1ccc(S(=O)(=O)Nc2ccccc2C(F)(F)F)cc1	0.2	nt
CSc1nnc(C(F)(F)F)n1C	-0.26	nt
CCC1(C)NC(=O)NC1=O (stereo unspecified)	nt	-0.95
CN(C)/C=N/S(=O)(=O)c1cccn1-c1ncc(C(F)(F)F)cc1Cl	0.15	nt
O=C1CCN(C(=O)CCCc2nc3ccccc3s2)CC1	nt	-0.55

# The closing 2 compounds of the section above open the next one.
molecule	Ba CapD inh	AID504770
CN(C)/C=N/S(=O)(=O)c1cccn1-c1ncc(C(F)(F)F)cc1Cl	0.15	nt
O=C1CCN(C(=O)CCCc2nc3ccccc3s2)CC1	nt	-0.55
CCOc1ccccc1NC(=S)N(C1CCCCC1)C(C)c1ccco1 (stereo unspecified)	0.62	-0.4
OC1CSc2nc3ccccc3n21 (stereo unspecified)	-0.34	0.75
CCCN=C1CC(C)(C)CC(=O)/C1=C(\O)Cc1ccc(OCC)c(OCC)c1	-0.98	2
O=C(CCCn1c(=O)c2ccccc2n(CC(=O)c2ccc(F)cc2)c1=O)NC1CCCC1	57	0.65
CC1CN(C(=O)COC(=O)COc2cc(Cl)c(Cl)cc2Cl)CC(C)O1 (stereo unspecified)	nt	0.75
CS(=O)(=O)c1ccc(CSCCNC(=O)C2CC2)cc1	0.055	nt
CC(C)(C)c1ccc(C(=O)NC2=NCCS2)cc1	0.74	0.9
CC(C)c1ccc(NCCNC2CCCCCC2)cc1	-0.74	2.4
O=C(CSc1nnc(CNc2ccccc2)o1)c1ccc2c(c1)OCCO2	nt	0.15
CCCN1C(=O)C2CC(C)=C(C)CC2C1=O (stereo unspecified)	-0.15	0.6
Cc1nc2cccnc2n1-c1ccc(CC(=O)N2CCc3ccccc32)cc1	0.99	-0.8
Brc1ccc2c(c1)C1CC(c3cccs3)=NN1C1(CCCC1)O2 (stereo unspecified)	2.7	nt
CC(=O)OC1CCCCC1C1=CCCCC1 (stereo unspecified)	0.07	-0.7
CCCNC(=O)COc1ccccc1OC	-0.015	-0.9
CCOC(=O)CSc1nc2cc(S(C)(=O)=O)ccc2n1Cc1ccccc1	-0.51	nt
O=c1[nH]c(O)c(/C=C/N=Nc2ccccc2)c(=O)[nH]1	-1.5	-0.4
COc1ccc(-c2coc3c(C)c4oc(=O)c5cc(OC)ccc5c4cc23)cc1	-1.1	0.7
CC(NS(C)(=O)=O)C(c1cccs1)N1CCN(c2ccccc2)CC1 (stereo unspecified)	0.39	-0.3
CC1=C(C)CS(=Nc2ccccc2[N+](=O)[O-])N(S(=O)(=O)c2ccccc2)C1 (stereo unspecified)	0.6	nt
CC(C)(C)c1cc2nc(C(F)(F)F)cc(N3CCN(S(=O)(=O)c4ccc(F)cc4F)CC3)n2n1	19	nt
O=C(O)c1ccccc1OCc1cn2ccccc2n1	nt	1.3
Nc1nn2cc(-c3ccc(Cl)s3)nc2c2ccccc12	105	-0.4
CCCc1cc(NCCN(C)C)n2c(nc3ccccc32)c1C#N	62	-0.25
CCn1cc(CN(Cc2ccccc2)C(=S)Nc2cc(C)ccc2C)c2ccccc21	-1.1	0.55
c1ccc(-c2csc3ncnc(N4CCCCC4)c23)cc1	nt	-0.15

# Structures from the list above with an aryl thioether with sulfur outside any ring:
molecule	Ba CapD inh	AID504770
CCCCOC(=O)CSc1nnc(-c2ccccc2)c(=O)[nH]1	-0.06	nt
COc1ccc(-c2nc(-c3ccccc3)nc(Sc3ccccc3)c2C#N)cc1	-0.75	nt
CSc1nnc(C(F)(F)F)n1C	-0.26	nt
O=C(CSc1nnc(CNc2ccccc2)o1)c1ccc2c(c1)OCCO2	nt	0.15
CCOC(=O)CSc1nc2cc(S(C)(=O)=O)ccc2n1Cc1ccccc1	-0.51	nt

# The list continues.
molecule	Ba CapD inh	AID504770
CC1CCCCN1c1nc(-c2ccccc2O)nc2ccccc12 (stereo unspecified)	-0.73	0.15
Nc1cc(=O)[nH]c(SCc2ccc(C(=O)c3ccccc3)cc2)n1	-0.9	-0.55
O=C(NC(=S)Nc1ccc(O)c(-c2nc3ccccc3o2)c1)c1ccccc1	-0.78	-0.5
COc1ccc(S(=O)(=O)N2CCN(c3cccc(Cl)c3C)CC2)cc1OC	nt	-3.2
CCOc1nc2cnccc2n(Cc2ccc(C)cc2)c1=O	0.82	0.3
Cc1cccc(C(=O)OCC(=O)N2c3ccccc3CC2C)c1O (stereo unspecified)	-0.29	-0.4
Cc1ccc(Nc2oc(-c3ccc(C)cc3)nc2C#N)cc1	nt	-1
O=C(CSc1cn(Cc2ccccc2)c2ccccc12)N1CCCC1	0.055	0.3
CC(=O)NC(CC(N)=O)C(=O)O (stereo unspecified)	-0.64	nt
Cn1c(CN2CCCCC2)nc2ccccc21	0.07	-1.1
COC(=O)[C@@]1(c2ccccc2)C[C@H](CN2CCC3(CC2)C(=O)NCN3c2ccccc2)Oc2ccc(OC)cc21	-0.11	nt
Cn1cnc(SCC(=O)N2c3ccccc3C(C)(c3ccccc3)CC2(C)C)n1 (stereo unspecified)	-0.12	nt
O=C(c1cc(-c2ccccc2)nn1-c1ccccc1)N(C1CC1)C1CCS(=O)(=O)C1 (stereo unspecified)	nt	0
CCC(C)c1ccc(NC(=O)N(C)C)cc1 (stereo unspecified)	-0.78	2.4
N#Cc1c(N=CN2CCCCC2)nc2c(c1-c1ccccc1)CCCC2	10	0.6
OC(CNCC1CCCO1)COc1ccc(-c2ccccc2)cc1 (stereo unspecified)	nt	-0.8
O=C1NC(c2ccccc2Cl)Nc2ccccc21 (stereo unspecified)	84	nt
O=C(NCCCN1CCCCC1)c1ccc(Cn2c(=S)[nH]c3ccc(Br)cc3c2=O)cc1	-0.34	nt
O=C(Nc1nc(-c2ccc(Cl)s2)cs1)c1ccco1	1.1	-0.35
COCCNc1nc(SCc2cccc([N+](=O)[O-])c2)nc2ccccc12	-0.99	nt
Cc1ccc(NC(=O)Sc2ccc(Cl)cc2)cc1	nt	0.45
Oc1ccc(C=NC2CCCCC2)cc1	-2.1	-0.1
CC(C)=NOC(=O)c1cn(-c2ccccc2)nc1-c1cccs1	nt	-0.15
Oc1ccc(Nc2nc3nonc3nc2Nc2ccc(O)cc2)cc1	-2.9	nt
CCOC(=O)CSc1nc(N)c(C#N)c(CC(C)C)c1C#N	23	-1
CCN1CN=C(SCc2ccc(C)cc2)NC1	-0.55	nt
CCCc1nc2ccccc2n1CC(=O)N(c1ccccc1)C(C)C	0.04	-1.2
CCCOc1cc(N)ccc1C(=O)OCCN(CC)CC	-0.22	nt
Cc1ccccc1C(NC(N)=O)c1ccccc1 (stereo unspecified)	0.17	-0.55
CCN(CC)CC(O)COC1CCC(C(C)(C)C)CC1 (stereo unspecified)	nt	-0.65
COc1cccc2c1OC1(C=C2)N(C)c2ccccc2C1(C)C (stereo unspecified)	-0.65	nt
CC(C)CN1C(=O)c2ccc(Br)cc2C1=O	nt	-0.75
CCOC(=O)C1=C(O)/C(=C/c2ccco2)SC1=Nc1ccc(C)cc1	0.39	0.85
CS(=O)(=O)c1ccc(C(=O)Nc2ccc(N3CCCC3)cc2)c(Cl)c1	-0.34	nt
CCOC(=O)Cn1c(=NC(=O)C2COc3ccccc3O2)sc2cc(S(N)(=O)=O)ccc21 (stereo unspecified)	nt	1.1
CN(C(=O)COC(=O)c1cc(F)c(F)cc1Cl)c1ccccc1	0.83	0.6
Cc1ccc(Cl)cc1N1CCN(C(=O)c2ccc3noc(-c4ccccc4)c3c2)CC1	0.39	-0.65
CCCOc1ccccc1NC(=O)/C=C/C(N)=O	-0.47	-0.25
O=c1[nH]c(-c2ccccc2)nc2c1oc1ccccc12	1.8	-0.15
O=C(Nc1cccnc1)c1c(O)c2ccccc2n(Cc2ccccc2)c1=O	nt	-0.7
Cc1sc2ccccc2[n+]1CCCO	nt	-0.05
CN(C)c1nc(N2CCN(c3ccccc3)CC2)cc(C(F)(F)F)n1	0.8	nt
COc1ccccc1NC(=O)C(C#N)Cc1ccc(C)cc1 (stereo unspecified)	0.05	-0.4
CC1CCN(CC(=O)N2c3ccccc3C(C)(c3ccc(Cl)cc3)CC2(C)C)CC1 (stereo unspecified)	0.075	nt
N#CCS(=O)(=O)c1ccc(C(F)(F)F)cn1	-0.42	nt
Cc1cc(C)nc(Sc2cccc(N)c2)n1	-0.35	nt
O=S(=O)(c1ccc2ccccc2c1)N1CCN(c2ccc(F)cc2)CC1	-0.25	-0.1
COc1ccccc1CC(=O)Nc1ccc(-c2nnc(-c3ccccc3)o2)cc1	28	0.6
COc1ccc(OCC(O)CNS(=O)(=O)c2cccc(Cl)c2)cc1 (stereo unspecified)	-0.43	2.6
O=c1c2c3c(sc2ncn1/N=C/c1cccnc1)CCCC3	nt	-0.65

# Profiles as entered above. Values in the order: Ba CapD inh | AID504770
# Oc1ccc(Nc2nc3nonc3nc2Nc2ccc(O)cc2)cc1 is listed as -2.9 | nt
# N#CCS(=O)(=O)c1ccc(C(F)(F)F)cn1 is listed as -0.42 | nt
# Nc1nn2cc(-c3ccc(Cl)s3)nc2c2ccccc12 is listed as 105 | -0.4

# Next entries:
molecule	Ba CapD inh	AID504770
CC1CCCC1OP1(=O)CC=CC1 (stereo unspecified)	nt	-1.2
NC(=O)C1CCN(CC2CC3C=CC2C3)CC1 (stereo unspecified)	0.045	-0.2
O=C(CN1CCN(CCCc2c[nH]c3ccc(F)cc23)CC1)c1ccc(F)cc1	0.55	0.4
CCOC(=O)C1=C(c2ccccc2)OC(N)=C(C#N)C1c1ccc(Cl)c([N+](=O)[O-])c1 (stereo unspecified)	-0.27	nt
Cc1cc(C2N=C(N)Nc3nc4ccccc4n32)c(C)n1-c1cc(C(F)(F)F)ccc1N1CCOCC1 (stereo unspecified)	nt	-1
COCc1cc(=O)[nH]c2cc(NC(=O)C(F)(F)F)c(C)cc12	3.2	2.7
Fc1ccc(-c2cc(C(F)(F)F)nc(NC3CCCC3)n2)cc1	20	-1.2
O=C(COc1ccccc1)NCc1ccccc1	0.21	-0.2
O=C(O)c1ccc2nc3ccsc3c(=O)n2c1	107	-1.1
COc1cc(/C=C(\C#N)C(=O)Nc2ccc(S(N)(=O)=O)cc2)ccc1O	nt	-0.2
Cn1c(=O)cc(OCC(=O)NCCCN2CCCC2)c2ccccc21	0.21	0.95
C=CCn1c(CCCNC(=O)c2ccccc2)nc2ccccc21	0.19	0.55
CC1CCCCN1C(=S)Nc1ccccc1 (stereo unspecified)	nt	-0.4
CSc1ncccc1C(=O)OCC(=O)N(C)C	nt	-0.65
CCC(=O)N(C)C1CCS(=O)(=O)C1 (stereo unspecified)	nt	-1.1
CCCS(=O)(=O)c1c(S(=O)(=O)CCC)c2cc(-c3ccncc3)ccn2c1C(=O)c1ccccc1	0.22	nt
CN(c1ccc(C(=O)NN=C2CCCC2)cc1)S(=O)(=O)c1ccccc1	0.28	-0.2
CC1=NN(c2ccc(Br)cc2)C(=O)/C1=C\c1ccc(-c2cccc([N+](=O)[O-])c2)o1	0.58	nt
Cc1ccc(CCSc2ccc(Cl)c(Cl)c2)cn1	0.33	-0.65
Cc1ccccc1N1CCN(C(=O)OCCc2ccc(Cl)cc2)CC1	0.35	nt
CC1CC1C(=O)OCC(=O)NCc1ccc(Cl)cc1Cl (stereo unspecified)	-0.44	0.7
CN1/C(=C\C(=O)CC(N)=O)C(C)(C)c2ccccc21	nt	2.4
CCCc1cc2ccccc2o1	-0.54	2.1

# Compound activity (PubChem BioAssay)
